Source: PubChem
GLA inh pH 4.5 – blocks human alpha-galactosidase A at pH 4.5; P06280; purified enzyme, 4-MU-alpha-Gal fluorescence, pH 4.5; activity change, negative = inhibition, % at 105 µM; 230,000 tested, under 10 active; inconclusive = small, poorly fitted or top-dose-only inhibition, or a rising curve; inactive = flat fitted curve, though single readings scatter; no compound was filed as active;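 also: 0% = full activity with enzyme and -100% = basal without enzyme; dose as in the result columns while the protocol names 77 µM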
Rango release inh – inhibition of RanGTP-driven Rango-importin beta dissociation; Potency, µM (series often up to 46.1 µM), without a hit: at the top dose activity change, negative = inhibition; 340,000 tested, 0.071% active; O95149+P62826; Biochemical FRET Rango-importin beta, RanGTP-induced dissociation; active means falling FRET ratio curve, often poorly fitted, with flat reads before Ran was added; inconclusive means other falling curves, or compound fluorescence or quenching; inactive means flat or rising ratio curve;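 also: potency is read from the fitted curve at half-maximal effect; % of control where 0% means no effect; nearly all actives have a fitted effect of over 45% in size; -100% = wells without RanGTP and RCC1; the record marks most hits as doubtful in a second field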
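Rango (0.1 uM)–importin beta (0.25 uM) complex; RanGTP-RCC1 trigger; 45 min RT; CFP/YFP FRET read.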
Rango complex inh – prevents formation of the Rango-importin beta complex | Rango CFP/YFP FRET sensor + importin beta, 45 min | Potency, µM (titrated, usually from 92.2 µM), for the others: at the top dose inhibition of complex formation | 340,000 tested, 0.031% active | AID 540263; active = rising FRET ratio curve, often small or poorly fitted; inconclusive = mostly compound fluorescence or quenching in the first reads; inactive = flat curves in all reads;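 also: potency is read from the fitted curve at half-maximal effect; 0% = DMSO wells and 100% = buffer wells lacking importin beta; nearly all actives have a fitted effect of over 15% in size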
Target sequence (Q14974 whole entry, looked up): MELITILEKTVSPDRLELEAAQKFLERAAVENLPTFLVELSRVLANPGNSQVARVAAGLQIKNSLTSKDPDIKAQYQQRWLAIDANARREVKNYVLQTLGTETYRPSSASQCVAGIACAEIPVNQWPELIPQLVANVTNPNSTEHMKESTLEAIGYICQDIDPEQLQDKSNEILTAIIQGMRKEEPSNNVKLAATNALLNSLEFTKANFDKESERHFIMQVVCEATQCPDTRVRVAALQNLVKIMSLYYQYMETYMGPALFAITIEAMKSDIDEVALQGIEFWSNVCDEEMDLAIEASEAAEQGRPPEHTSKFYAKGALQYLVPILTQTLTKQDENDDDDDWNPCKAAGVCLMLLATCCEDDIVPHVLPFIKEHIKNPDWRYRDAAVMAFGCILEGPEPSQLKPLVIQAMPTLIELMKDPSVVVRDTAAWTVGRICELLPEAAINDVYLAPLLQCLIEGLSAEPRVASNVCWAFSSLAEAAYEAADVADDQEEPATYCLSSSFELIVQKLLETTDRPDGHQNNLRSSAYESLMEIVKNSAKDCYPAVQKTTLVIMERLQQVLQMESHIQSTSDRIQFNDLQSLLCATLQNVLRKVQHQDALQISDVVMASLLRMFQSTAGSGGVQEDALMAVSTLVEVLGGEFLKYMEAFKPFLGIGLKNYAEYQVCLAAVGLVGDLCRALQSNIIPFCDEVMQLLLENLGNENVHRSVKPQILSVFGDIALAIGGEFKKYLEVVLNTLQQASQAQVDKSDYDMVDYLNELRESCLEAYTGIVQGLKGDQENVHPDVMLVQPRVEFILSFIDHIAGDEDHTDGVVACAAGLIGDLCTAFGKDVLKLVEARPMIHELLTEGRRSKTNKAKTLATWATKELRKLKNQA
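FRET biosensor Rango (snurportin 1 IBB between N-terminal EYFP and C-terminal Cerulean), 50 nM in PBS/1 mM DTT/0.02% Tween-20/0.1% BSA, preincubated 5 min RT with compound; 0.125 microM importin beta added, 45 min RT, CFP/YFP FRET ratio read.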
miR-21 FLuc – miR-21 reporter, rising signal; HeLa miR-21 FLuc reporter, luciferase, 48 h; Potency, µM (series often up to 38.3 µM), without a hit: at the top dose reporter change, positive = more light; 340,000 tested, under 10 active; AID 2288; active = well fitted rising curve with a large enough effect; inconclusive = small, poorly fitted or top-dose-only effect; inactive = no such curve, though single readings can be large or run the other way;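 also: % of control where 0% means no effect; miR-21 action dims this reporter so a rising signal means less miR-21 action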
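HeLa cells endogenously expressing miR-21, stably carrying CMV-driven firefly luciferase with a downstream miR-21 binding site, 2000 cells/well. Titrations up to approximately 40 uM, 48 hours; luciferase luminescence read.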
An asterisk follows results filed as active; ? = inconclusive; / = not tested or not shown; & = joins results of further samples. Only part of the results is shown, so the mix of outcomes need not match the whole.

no.	Molecule	GLA inh pH 4.5	Rango release inh	Rango complex inh	miR-21 FLuc
1	Cc1ccc(N2C(=O)c3ccccc3NC2C(C)Cc2ccc3c(c2)OCO3)cc1 (stereo unspecified)	-3	-7%	-2.3%	-26%
2	CCOc1ccccc1N1CCN(C(=O)/C=C/c2cccc([N+](=O)[O-])c2)CC1	-8	-12%	-0.2%	-10%
3	CN1CCN(c2ccc(Cl)cc2NC(=O)CCN2C(=O)c3ccccc3C2=O)CC1	-4	-29%	-1.4%	2%
4	COc1cccc(C2NC(=S)NC3=C2CCc2ccccc23)c1 (stereo unspecified)	-3	15%	2.2%	-3%
5	CCCC(=O)Nc1c(C(=O)OCC)[nH]c2ccccc12	3	14%	?	-3%
6	O=C(NC(=S)NCC1CCCO1)c1ccc(Cl)cc1Cl (stereo unspecified)	10	3%	0.7%	-34%
7	CCCCC(=O)NC(=S)Nc1cccc(NC(=O)c2ccco2)c1	-1	9%	0.4%	-4%
8	COc1cccc(CN(C)C(=O)CNC(=O)c2ccc3c(c2)OCO3)c1OC	/	-3%	-1.3%	-6%
9	CCN(CC)C(=S)SCC(=O)c1ccccc1	4	15%	-0.1%	-37%
10	CCOc1ccccc1NC(=O)NC(C)c1ccncc1 (stereo unspecified)	4	-4%	3.7%	-1%
11	CCC1(c2ccc(F)cc2)NC(=O)N(CC(=O)N2CCN(S(=O)(=O)c3ccc(C)cc3C)CC2)C1=O (stereo unspecified)	/	-4%	4.7%	/
12	O=C(NC1CCN(Cc2ccccc2)CC1)C1CCCN(S(=O)(=O)c2cccc3nonc23)C1 (stereo unspecified)	7	-8%	1.0%	9%

Continuation:
no.	Molecule	GLA inh pH 4.5	Rango release inh	Rango complex inh	miR-21 FLuc
13	CC1CCN(C(=O)CC(NC(N)=O)c2ccccc2Cl)CC1 (stereo unspecified)	/	6%	-2.4%	-2%
14	CCOC(=O)c1cccc(NC(=O)CN(c2ccc(C)cc2)S(=O)(=O)c2c(C)n[nH]c2C)c1	-11	11%	-4.7%	7%
15	CC(=O)N1C(=O)N(C)C2C1N(C)C(=O)N2C(C)=O (stereo unspecified)	3	/	/	0%
16	O=C1[C@H]2[C@@H](/C=C/c3ccccc3)N3C(=O)CN(Cc4ccccn4)C(=O)[C@@]3(Cc3ccccc3)[C@H]2C(=O)N1c1ccccc1	/	0%	0.3%	4%
17	Oc1ccc(C=NN=Cc2ccco2)c(O)c1	/	?	?	/
18	CCc1ccccc1N(CC(=O)NCc1ccccc1)C(=O)CCC(=O)Nc1ccccn1	/	5%	-0.7%	4%
19	O=C1OC(c2ccccc2)=NC12CC2c1ccc(Cl)cc1 (stereo unspecified)	12	4%	-3.2%	-8%
20	Cc1nn(CCC(=O)NNC(=S)Nc2ccc([N+](=O)[O-])cc2)c(C)c1[N+](=O)[O-]	-4	0%	1.1%	1%
21	OC(Cn1cncn1)(c1ccc(F)cc1)c1ccc(Cl)cc1 (stereo unspecified)	/	2%	-4.1%	-1%
22	O=C(Cc1ccc(Cl)cc1)NNC(=O)c1cnccn1	3	-3%	-1.5%	7%
23	NC(=O)c1cc(S(=O)(=O)Nc2cccc(F)c2)co1	6	-22%	-3.4%	-1%
24	COc1ccc(S(=O)(=O)N2CCOCC2)cc1NC(=O)COC(=O)c1oc2ccccc2c1C	/	16%	1.5%	/

(next part)
no.	Molecule	GLA inh pH 4.5	Rango release inh	Rango complex inh	miR-21 FLuc
25	CC1CCCC(N2CCN(C(=O)c3ccc([N+](=O)[O-])cc3)CC2)C1 (stereo unspecified)	/	-9%	0.5%	-8%
26	COc1ccc(OCC(=O)NC(=S)Nc2ccc(S(=O)(=O)Nc3cc(OC)nc(OC)n3)cc2)cc1	-18	3%	6.8%	-8%
27	CC1(c2nnc(-c3ccccc3)o2)CC(c2ccc([N+](=O)[O-])cc2)=NO1 (stereo unspecified)	/	2%	3.9%	/
28	O=C(c1ccccc1)c1ccc(NCCCn2ccnc2)c([N+](=O)[O-])c1	/	26%	0.1%	6%
29	CCOC(=O)C1(Cc2ccc(OC)cc2)CCN(C(=O)CCn2cccn2)CC1	2	-13%	2.0%	-13%
30	Cc1[nH]c2ccccc2c1SCc1nnc(SCc2ccc(Cl)cc2)n1C	0	21%	-4.7%	0%
31	O=C(Nc1ccc2c(c1)OCO2)c1ccc([N+](=O)[O-])cc1[N+](=O)[O-]	/	-6%	-0.8%	-23%
32	O=C(NCC1CCCO1)c1ccc(Br)s1 (stereo unspecified)	/	-13%	-0.7%	-15%
33	COc1ccc(NC(=O)N(C)C[C@@H]2Oc3c(NC(=O)Nc4c(C)noc4C)cccc3C(=O)N([C@@H](C)CO)C[C@@H]2C)cc1	/	2%	-0.6%	/
34	CCOC(=O)NS(=O)(=O)c1ccc(CCNC(=O)c2cc(C)on2)cc1	-11	8%	-1.7%	-1%
35	CCOC(=O)N1CCC(NC(=O)c2cc(S(=O)(=O)N3CCCCC3)ccc2F)CC1	10	-20%	-0.2%	13%
36	COc1ccc(/C=C/C(=O)NCC(=O)N2CCC(N(C)CCN3CCOCC3)CC2)cc1OC	2	17%	-0.2%	0%

The listing continues.
no.	Molecule	GLA inh pH 4.5	Rango release inh	Rango complex inh	miR-21 FLuc
37	COc1cc2c(cc1OC)C(C)N(C(=O)c1cc3ccccc3o1)CC2 (stereo unspecified)	5	-13%	-3.4%	1%
38	CC(=O)N/C(N)=N/c1nc2cc([N+](=O)[O-])ccc2o1	-4	-17%	6.7%	-50%
39	CC1(C)CC(=O)C2=C(C1)N(c1ccc(F)cc1)C(=O)CC2c1cccnc1 (stereo unspecified)	6	14%	1.6%	-4%
40	Cc1ccc2nc(NC(=O)CCn3c(=O)sc4ccccc43)sc2c1	-12	-12%	1.2%	-2%
41	COc1ccc(NC(c2ccccc2)c2ccncc2)cc1 (stereo unspecified)	/	-8%	-0.4%	-11%
42	CN(C)c1cccc(C(=O)OCC(=O)Nc2ccccc2Cl)c1	-13	-23%	-0.9%	-4%
43	O=C(CN1C(=O)c2cccnc2Oc2ccc(Cl)cc21)NC1CCCCC1	/	-2%	4.2%	-8%
44	O=C(Nc1ccccc1C(F)(F)F)c1cc2ccccc2o1	/	-13%	0.4%	-62%
45	Cc1ccc(S(=O)(=O)NN=C2CC3CCC2(C)C3(C)C)cc1 (stereo unspecified)	/	-13%	0.9%	/
46	CCc1ccc(NCCC(=O)c2ccc(Br)cc2)cc1	-3	-14%	1.5%	-3%
47	Cc1ccc2c(C(=O)CN3CCCC(C)C3)c(C)[nH]c2c1 (stereo unspecified)	/	10%	0.1%	-1%
48	CSc1nc2cc(C)nn2c(-c2ccccc2Cl)c1C#N	0	-5%	-0.6%	-10%

(continued)
no.	Molecule	GLA inh pH 4.5	Rango release inh	Rango complex inh	miR-21 FLuc
49	Cn1cc(C(=O)C(=O)N2CCCC2)c2ccccc21	/	3%	-3.2%	-7%
50	CN(C)/C=N/c1ncc(C(=O)c2ccccc2)s1	-7	-4%	-0.8%	-36%
51	CCc1ccc(NC(=O)CCNC(=O)Cn2cnc3ccccc3c2=O)cc1	/	3%	-0.1%	0%&-11%
52	Cc1sc2nc(CN(C(=O)c3cccs3)C3CCCC3)[nH]c(=O)c2c1C	7	3%	-3.5%	2%
53	Cc1nnc(SCC(=O)NCC(=O)Nc2ccc(F)c(F)c2F)n1N	/	12%	0.4%	/
54	Cc1ccccc1C(=O)NNC(=S)Nc1cccc(C(F)(F)F)c1	-4	21%	2.5%	?
55	O=C1C=C(c2cccc3c2oc2ccccc23)CCC1	/	-8%	2.7%	/
56	NC(=S)NN=C1CCSCC1	/	-15%	3.2%	/
57	CCOC(=O)N1CCN(c2c(N3CCC(N4CCCCC4)CC3)c(=O)c2=O)CC1	-3	17%	-6.4%	0%
58	O=C(CSc1nnc(CSc2nc3ccccc3s2)o1)NC1CCCCC1	6	3%	4.6%	-3%
59	CCN(CC)CCNC(=O)Cn1cnc2sc(C)c(S(=O)(=O)N3CCOCC3)c2c1=O	-10	6%	7.0%	-2%
60	Cc1ccc(CS(=O)Cc2ccc(C(=O)NC3CCCCCC3)o2)cc1 (stereo unspecified)	/	8%	-0.4%	-4%

Sorted by number of heavy atoms (ascending): 14 of the compounds above
no.	Molecule	GLA inh pH 4.5	Rango release inh	Rango complex inh	miR-21 FLuc
56	NC(=S)NN=C1CCSCC1	/	-15%	3.2%	/
50	CN(C)/C=N/c1ncc(C(=O)c2ccccc2)s1	-7	-4%	-0.8%	-36%
49	Cn1cc(C(=O)C(=O)N2CCCC2)c2ccccc21	/	3%	-3.2%	-7%
55	O=C1C=C(c2cccc3c2oc2ccccc23)CCC1	/	-8%	2.7%	/
47	Cc1ccc2c(C(=O)CN3CCCC(C)C3)c(C)[nH]c2c1 (stereo unspecified)	/	10%	0.1%	-1%
44	O=C(Nc1ccccc1C(F)(F)F)c1cc2ccccc2o1	/	-13%	0.4%	-62%
42	CN(C)c1cccc(C(=O)OCC(=O)Nc2ccccc2Cl)c1	-13	-23%	-0.9%	-4%
54	Cc1ccccc1C(=O)NNC(=S)Nc1cccc(C(F)(F)F)c1	-4	21%	2.5%	?
53	Cc1nnc(SCC(=O)NCC(=O)Nc2ccc(F)c(F)c2F)n1N	/	12%	0.4%	/
60	Cc1ccc(CS(=O)Cc2ccc(C(=O)NC3CCCCCC3)o2)cc1 (stereo unspecified)	/	8%	-0.4%	-4%
43	O=C(CN1C(=O)c2cccnc2Oc2ccc(Cl)cc21)NC1CCCCC1	/	-2%	4.2%	-8%
51	CCc1ccc(NC(=O)CCNC(=O)Cn2cnc3ccccc3c2=O)cc1	/	3%	-0.1%	0%&-11%
57	CCOC(=O)N1CCN(c2c(N3CCC(N4CCCCC4)CC3)c(=O)c2=O)CC1	-3	17%	-6.4%	0%
59	CCN(CC)CCNC(=O)Cn1cnc2sc(C)c(S(=O)(=O)N3CCOCC3)c2c1=O	-10	6%	7.0%	-2%

Next structures:
no.	Molecule	GLA inh pH 4.5	Rango release inh	Rango complex inh	miR-21 FLuc
61	Cc1cc(=O)n2nc(N3CCC(C(=O)NCc4ccc(Cl)cc4)CC3)sc2n1	/	-17%	?	-6%&-9%
62	CNNCc1ccc(C(=O)NC(C)C)cc1	4	16%	5.0%	/
63	O=C(O)C1CC(=O)N(c2ccc(OCc3ccc(Br)cc3)cc2)C1 (stereo unspecified)	/	15%	3.5%	-6%
64	Nc1ccc(C(=O)Oc2ccc([N+](=O)[O-])cc2)c(O)c1	-6	/	/	-6%
65	O=C(O)COc1ccccc1/C=N/NC(=O)CNC(=O)c1ccc(F)cc1	1	1%	-1.7%	0%
66	CCn1c(/C=C\c2ccccc2C)nc2ccccc2c1=O	-7	7%	-0.7%	-49%
67	O=C(NCCCc1ccccc1)c1cccc(Br)c1	/	-7%	-2.9%	/
68	Cc1ccccc1NC1=C/C(=N\S(=O)(=O)c2cccs2)c2ccccc2C1=O	-11	6%	-3.1%	?
69	O=C(CCC1CCCC1)N1CCC(N2CCCCCC2)CC1	1	-4%	4.1%	-4%
70	Cc1cc(OCCCCCNCCO)ccc1Cl	4	-6%	-1.1%	-30%
71	CCOC(=O)N1CCN(C(=O)CSCc2ccccc2C)CC1	-7	0%	1.4%	-30%
72	COC(=O)[C@@H](Cc1ccccc1)NC(=O)NCCc1ccccc1	/	0%	-0.9%	-4%
73	CC(=O)Nc1c(O)nc(SCC(=O)Nc2cccc(C)c2)[nH]c1=O	-16	-15%	2.2%	0%
74	COc1ccc(CC(=O)NC(C)c2nnc(SCCC(=O)Nc3ccccc3)n2C)cc1 (stereo unspecified)	-2	-8%	-0.7%	3%
75	Cc1cccc(NC(=O)NNC(=O)c2c(Cl)c(C)nn2C)c1	2	24%	4.2%	-2%
